Screening data deposited in PubChem BioAssay by several laboratories.
Bead autofluor = counter-screen for toxin protease inhibitors: compound fluorescence; compound autofluorescence counterscreen, microsphere flow cytometry; stronger effect = higher value; fluorescence intensity (no concentration beside the values); 360,000 compounds, 3.1% hits; AID 624483;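 active means at least 3 SD above the mean of all compounds, about 16000 in these data; inconclusive means too few beads counted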;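 further: 100 nL of 1 mM stock went into each well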
RN4220 kill = growth inhibition of S. aureus RN4220, primary screen, OD600 | 16 h | inhibition, % (concentration not given with the values) | 330,000 compounds, 0.33% hits;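 active means z-score of -3 or lower and OD600 up to 0.18 on both plates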;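 further: plate controls were untreated cells for no effect and reference antibiotic for full effect; stock transfer was 100 nL into about 80 µL; one replicate is shown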
BJeLR viability = MLPCN primary cell-based screen for lethality selective to Ras in HRASV12 cells; 300,000 compounds, 0.17% hits; AID 1554, 2009; inhibition, % (no concentration beside the values); BJeLR (HRASV12) viability, CellTiter-Glo ATP luminescence, 48 h; reference of the scale not given here;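 active means replicate mean above 50%; inconclusive means above 50% but judged a plate artefact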;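 further: 50 nL library stock added to about 25 µL; numbers are from one replicate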
PrP 5UTR inh = inhibition of PrP 5' UTR reporter expression; AID 488862, 2010; inhibition, % (no concentration beside the values); 340,000 compounds, 0.35% hits; cell-based PrP 5' UTR mRNA reporter, plate reader;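 active means every replicate at 50% or more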;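 further: 0 = median of the neutral control wells; tested in H4 reporter cells; numbers are from one replicate; inactives centre near -14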
Sa ugtP lethal = growth inhibition of ugtP-null S. aureus, primary screen, RN4220 ugtP deletion, OD600 | 16 h; some inactives read as strong as hits | growth inhibition, % (no concentration beside the values) | 330,000 compounds, 0.54% hits;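 active means z-score under -3 and OD600 up to 0.15 on both plates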;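 further: plate controls were untreated wells for no effect and antibiotic for full effect; wells of about 80 µL received 100 nL stock; the first replicate is given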
Mtb hypoxia rep = PubChem AID 1159583; 300,000 compounds, 0.1% hits; M. tuberculosis hypoxia-regulated fluorescent reporter, fluorescence; fluorescence inhibition, % (no concentration beside the values);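 active means 35 to 45% if threefold the growth effect, above 45% if 1.5-fold the growth effect; inactive means the rest, general growth blockers included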;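 further: wells of about 50 µL received 100 nL stock; 0% = vehicle wells and 100% = reference inhibitor wells; whole bacteria with a GFP reporter of the hypoxia response; strong numbers were not always called active; many hits fall short of the cut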
Mtb hypoxia rep growth = recorded beside Mtb hypoxia rep, whose call it bears; growth inhibition, %; measured here: M. tuberculosis growth (absorbance);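 0% = vehicle and 100% = reference antibiotic; read after six days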
Active calls of the source: *; ? = inconclusive; · = no result given.

SMILES	Bead autofluor	RN4220 kill	BJeLR viability	PrP 5UTR inh	Sa ugtP lethal	Mtb hypoxia rep	Mtb hypoxia rep growth
CC(C)CN(CCNC(=O)CN1C(=O)COc2ccc(S(=O)(=O)N3CCC(C)CC3)cc21)CC(C)C	5169	0.5	-6	-5	-2	8	14
CS(=O)(=O)NCCNc1cc(Cl)ccc1[N+](=O)[O-]	2684	3.5	0	-8	3	1	-3
COCCN1C(=O)/C(=C2/C(=O)N(CC(=O)Nc3ccccc3Cl)c3ccccc32)SC1=S	5587	3.9	-11	-6	0	12	1
O=C(CNC(=O)c1ccc(Br)o1)NC1CCCCC1	5755	-0.4	-4	-1	3	10	-3
Cc1ccc(C2(C)NC(=O)N(CC(=O)N3c4ccccc4NC(=O)CC3C)C2=O)cc1 (stereo not drawn)	7670	2.0	·	0	-1	13*	53*
CC(=O)Nc1ccc(C(=O)Nc2nc(-c3ccccn3)cs2)cc1	2952	6.0	0	-15	-4	3	2
CC1(C)C2CCC1(CS(=O)(=O)NC1CCCC1)C(=O)C2 (stereo not drawn)	4499	8.6	-2	2	4	9	7
COc1ccc(Nc2c(-c3ccco3)nc3cccc(C)n23)cc1	3177	0.7	9	-8	10	1	4
CCN(CC)CCCn1c2c(c(SCC(=O)Nc3nc4ccccc4s3)nc1=O)CCC2	?	6.0	3	-15	17	11	6
Cc1ccc(C(=O)CSc2ccccn2)cc1	2583	16	-1	-108	-1	6	12
Cc1ccc(C(=O)NCCCNC(=O)c2ccc(C)nc2)cc1	5544	4.2	-7	-29	4	13	0
Cc1cccc(NC(=O)CSc2nnc(CN3CCOCC3)n2C)c1C	4427	-3.0	-4	12	0	4	9
C=CCN(c1ccccc1)S(=O)(=O)c1cccc(C(=O)NCC(c2ccc(OC)cc2)N2CCCCC2)c1 (stereo not drawn)	6047	4.7	·	-5	8	2	8
COc1ccc(/C=N/NC(=O)c2ccc(N(C)S(=O)(=O)c3ccccc3)cc2)c(OC)c1	2025	·	1	-16	·	·	·
COc1cccc(CNc2ccc(C(=O)O)cc2)c1OCc1ccccc1	3938	17	10	-16	1	12	12
CCOC(=O)c1ccc(-n2c(CN3CCC(O)CC3)nc3ccc([N+](=O)[O-])cc3c2=O)cc1	5102	1.9	2	-11	6	9	7
O=C(CNC(=S)NC(=O)c1ccc(F)cc1)c1ccccc1	2068	3.8	-10	-20	3	13	8
COC(=O)CC1C(=O)NCCN1C(=O)c1ccc(S(=O)(=O)N2CCOCC2)cc1 (stereo not drawn)	4569	·	6	-71	·	·	·
Nc1c(-c2ccc(Cl)cc2)nnn1-c1ccccc1	8806	9.6	5	-53	-9	0	1
CC(=NNc1ncc(Cl)cc1Cl)c1ccc(OC(F)F)cc1	·	6.7	·	·	9	-9	-9
CCOc1ccc(/C=C/C(=O)OCC(=O)Nc2cccc(S(=O)(=O)N3CCCC3)c2)cc1	3709	-0.4	·	-21	21	11	7
O=C(CSc1ccc(Cl)cc1)Nc1cccc(-c2nc3ncccc3o2)c1	5748	8.0	32	-1	0	·	·
CC(C)OCCCNC(=O)C1CC(=O)N(CCc2ccccc2)C1 (stereo not drawn)	3848	0.9	4	-3	5	-1	-3
CN(Cc1ccccc1)/C(=N/O)c1cccc(Cl)c1	3638	·	-8	-7	·	·	·
COc1cccc(C2=NN(C(=O)c3ccco3)C(O)(C(F)(F)F)C2)c1 (stereo not drawn)	3580	29	0	-13	16	-1	-2
COc1cccc2nc3cc(C)c(C)cc3nc12	2843	·	58*	1	·	·	·
O=C(Nc1ccc(Cl)cc1)c1ccc2c(c1)S(=O)(=O)c1ccccc1C2=O	3994	4.4	7	-5	5	19	12
CCn1cc(C(=O)NCCc2ccccc2)c(=O)c2cc(S(=O)(=O)N3CCCC3)ccc21	4596	2.1	8	-22	11	·	·
CC(C)C1NC2(C(=O)c3ccccc3C2=O)C2C(=O)N(c3ccc(F)cc3)C(=O)C12 (stereo not drawn)	5070	-3.5	0	-18	-9	2	3
O=C(O)Cc1csc(NC(=O)c2ccco2)n1	2114	1.9	2	-10	1	·	·
COc1ccccc1NS(=O)(=O)c1cccc(C(=O)NCC2(N3CCCCC3)CCCCC2)c1	5791	-1.1	·	-18	-1	-3	7
CC(N1CCOC1=O)S(=O)(=O)c1ccccc1 (stereo not drawn)	3667	0.9	-2	5	4	18	9
CCOC(=O)C1(CC2CC2)CCN(Cc2cnc(-c3ccccc3C)nc2)CC1	4899	-5.4	0	-14	11	12	5
Cc1ccc(S(=O)(=O)N2CCCCC2)cc1NC(=O)CN1C(=O)CN(C)C1=O	4112	-0.3	1	-11	-4	4	9
Cc1ccc(CNC(=O)C2CCN(S(=O)(=O)c3cnc[nH]3)CC2)cc1	9021	5.3	-5	-8	6	7	12
O=C(Nc1nnc(-c2ccco2)o1)C1CCCCC1	5778	2.9	0	-14	9	9	-3
Nc1c(C(=O)NCc2ccco2)c2nc3ccccc3nc2n1CCN1CCCCC1	14811	6.1	-6	-28	5	13	23
O=C(N/N=C/c1cccc(Cl)c1Cl)Nc1ccccc1	11180	·	3	-9	·	·	·
Cc1ccc2cc3c(N)[nH]nc3nc2c1	2201	4.7	9	0	26	11	4
CCN1C(=O)C(CC(=O)Nc2ccc(Cl)cc2)N(NC(=O)c2ccncc2)C1=S (stereo not drawn)	4173	0.2	-11	·	-2	12	2

Among those listed so far, twelve contain four or more nitrogen atoms:
SMILES	Bead autofluor	RN4220 kill	BJeLR viability	PrP 5UTR inh	Sa ugtP lethal	Mtb hypoxia rep	Mtb hypoxia rep growth
CC(C)CN(CCNC(=O)CN1C(=O)COc2ccc(S(=O)(=O)N3CCC(C)CC3)cc21)CC(C)C	5169	0.5	-6	-5	-2	8	14
Cc1ccc(C2(C)NC(=O)N(CC(=O)N3c4ccccc4NC(=O)CC3C)C2=O)cc1 (stereo not drawn)	7670	2.0	·	0	-1	13*	53*
CC(=O)Nc1ccc(C(=O)Nc2nc(-c3ccccn3)cs2)cc1	2952	6.0	0	-15	-4	3	2
CCN(CC)CCCn1c2c(c(SCC(=O)Nc3nc4ccccc4s3)nc1=O)CCC2	?	6.0	3	-15	17	11	6
Cc1cccc(NC(=O)CSc2nnc(CN3CCOCC3)n2C)c1C	4427	-3.0	-4	12	0	4	9
CCOC(=O)c1ccc(-n2c(CN3CCC(O)CC3)nc3ccc([N+](=O)[O-])cc3c2=O)cc1	5102	1.9	2	-11	6	9	7
Nc1c(-c2ccc(Cl)cc2)nnn1-c1ccccc1	8806	9.6	5	-53	-9	0	1
Cc1ccc(S(=O)(=O)N2CCCCC2)cc1NC(=O)CN1C(=O)CN(C)C1=O	4112	-0.3	1	-11	-4	4	9
Cc1ccc(CNC(=O)C2CCN(S(=O)(=O)c3cnc[nH]3)CC2)cc1	9021	5.3	-5	-8	6	7	12
Nc1c(C(=O)NCc2ccco2)c2nc3ccccc3nc2n1CCN1CCCCC1	14811	6.1	-6	-28	5	13	23
Cc1ccc2cc3c(N)[nH]nc3nc2c1	2201	4.7	9	0	26	11	4
CCN1C(=O)C(CC(=O)Nc2ccc(Cl)cc2)N(NC(=O)c2ccncc2)C1=S (stereo not drawn)	4173	0.2	-11	·	-2	12	2

Additional records.
SMILES	Bead autofluor	RN4220 kill	BJeLR viability	PrP 5UTR inh	Sa ugtP lethal	Mtb hypoxia rep	Mtb hypoxia rep growth
CC(C)/C=C/CN1CCN(CCCc2ccccc2)C(CCO)C1 (stereo not drawn)	3375	-0.1	2	-6	10	6	0
Cc1sc(NC(=O)CS(=O)(=O)c2ccccc2)c(C#N)c1C	5940	7.2	-4	-29	-3	2	-6
C=C1CCN(C(CC(C)C)C(=O)N2CCCC2)S(=O)(=O)c2ccccc21 (stereo not drawn)	·	5.5	·	·	-8	13	13
CCCOc1ccc(/C=N/NC(=O)CN2CCCCC2)cc1	4252	·	2	-15	·	·	·
COc1cc(OC)cc(-c2cc3nc(C)c(CCC(=O)NC(C)CCc4ccco4)c(C)n3n2)c1 (stereo not drawn)	6227	-5.0	-2	1	-6	-3	19
Cc1ccc2[nH]c(=O)c(CN(Cc3cccs3)Cc3nnnn3Cc3ccccc3)cc2c1	10799	4.8	-4	-29	-12	13	2
CCc1ccc(NC(=O)CN(c2ccccc2)S(=O)(=O)N(C)C)cc1	3821	6.4	6	7	-2	7	7
Cc1ccc(S(=O)(=O)NCC(=O)Nc2cccnc2)cc1C	3406	-0.1	·	-26	3	11	9
CC(=NNC(=O)c1ccc2ccccc2c1)c1cccs1	·	0.9	·	·	1	4	6
CCC(=O)N1CC2(c3ccccc3)CN(C(=O)CC)CC(c3ccccc3)(C1)C2=O	4377	4.8	0	-17	1	8	11
O=C(/C=C/c1ccc([N+](=O)[O-])cc1)Nc1ncc([N+](=O)[O-])s1	4373	22	·	8	1	6	1
CCNC(=S)N1CCCCC1CO (stereo not drawn)	4803	7.8	-12	-27	12	6	11
COc1ccc(-c2cn3c(C)c(C(=O)N4CCCc5ccccc54)sc3n2)cc1	5869	-14	3	-9	-6	-4	11
O=C1c2cccc(OCC(=O)N3CCCc4ccccc43)c2CCN1Cc1cccnc1	4217	6.8	1	-9	4	13	13
CC(=O)c1cccc(OCc2cc(C(=O)N(C)CCc3ccccn3)no2)c1	3827	5.1	-1	-8	12	4	-14
C/C(=N\NC(=O)c1nc2ccccn2c1C)c1cccc([N+](=O)[O-])c1	4665	·	2	-6	·	·	·
O=C(NCC1OCCCN1S(=O)(=O)c1cc(F)ccc1F)C(=O)NC1CCCC1 (stereo not drawn)	5786	2.2	-7	0	1	15	0
Cc1nn(-c2ccccc2)c(C)c1C=CC(=O)OC(C)C(N)=O (stereo not drawn)	·	1.5	·	·	-7	2	5
CC(C)NC(=O)Cn1cc(C(=O)c2ccccc2)c2ccccc21	·	2.2	9	-2	2	-6	-12

Two records picked at random from those above:
SMILES	Bead autofluor	RN4220 kill	BJeLR viability	PrP 5UTR inh	Sa ugtP lethal	Mtb hypoxia rep	Mtb hypoxia rep growth
C/C(=N\NC(=O)c1nc2ccccn2c1C)c1cccc([N+](=O)[O-])c1	4665	·	2	-6	·	·	·
CC(=O)c1cccc(OCc2cc(C(=O)N(C)CCc3ccccn3)no2)c1	3827	5.1	-1	-8	12	4	-14
